VDR inhibitor: inhibitors of human vitamin D receptor. P11473. AID 504847. 0.93% of 400,000 active. Potency, µM, inactives show max response, negative = inhibition, most hits filed as inhibitors. VDR-SRC2-3 peptide fluorescence polarization, 2 h; active = well fitted inhibition curve with a large enough effect; inconclusive = small, poorly fitted or top-dose-only effect, or another doubt; inactive = no such curve, though single readings can be large or run the other way; note: series mostly up to about 120 µM
Target sequence (P11473 whole entry, looked up): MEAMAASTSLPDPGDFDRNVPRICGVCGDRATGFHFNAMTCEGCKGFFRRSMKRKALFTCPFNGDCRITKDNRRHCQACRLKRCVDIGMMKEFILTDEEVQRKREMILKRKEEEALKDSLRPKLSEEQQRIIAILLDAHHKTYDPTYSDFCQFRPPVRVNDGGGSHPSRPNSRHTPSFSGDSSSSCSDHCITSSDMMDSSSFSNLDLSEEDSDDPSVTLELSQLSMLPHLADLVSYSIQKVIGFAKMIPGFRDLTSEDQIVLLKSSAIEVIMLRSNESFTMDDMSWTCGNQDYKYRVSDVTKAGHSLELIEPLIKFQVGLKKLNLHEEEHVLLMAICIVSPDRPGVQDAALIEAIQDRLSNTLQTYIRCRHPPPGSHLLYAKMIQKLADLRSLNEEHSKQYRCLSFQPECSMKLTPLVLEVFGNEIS
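VDR–SRC2-3 interaction, FP format. Cmpds 23 nl via pintool, brief spin, 2 h ambient incubation.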
Starred values were filed as active, the others as inactive; ? = inconclusive; [ ] = remark or other dose. % is set by controls: 0 for no effect and ±100 for the full control effect; potency is the fitted concentration of half-maximal effect.

SMILES	VDR inhibitor
COC(=O)c1c(NC(=O)COC(=O)CCc2ccc(S(=O)(=O)N3CCOCC3)cc2)sc2c1CCC2	-3%
O=C(Nc1ccc(N2CCN(C(=O)c3ccccc3)CC2)cc1)c1cccs1	1%
O=C(COC(=O)c1cc([N+](=O)[O-])ccc1N1CCOCC1)Nc1cccc(F)c1	16%
Cc1ccc(C(=O)Nc2ccc3c(c2)OCCO3)c(Cl)c1	-6%
CC(C)CCNC(=O)C1CCCN(S(=O)(=O)c2ccc(F)cc2)C1 (stereo not drawn)	1%
O=[N+]([O-])c1ccc(C(c2sc3nc(-c4ccco4)nn3c2O)N2CCN(Cc3ccccc3)CC2)cc1 (stereo not drawn)	-3%
O=C(C1=C[C@@H](c2coc3ccccc3c2=O)C[C@@H](OCc2ccc(CO)cc2)O1)N1CCN(Cc2ccc3c(c2)OCO3)CC1	-4%
Cc1cc(S(=O)(=O)Nc2ccc3ccccc3c2)c(C)s1	9%
COc1ccc(CNCc2cc(Cl)ccc2O)cc1	-26%
Cc1ccc(C(=O)Cn2cc([N+](=O)[O-])nc2C)cc1	1%
CCNc1nc(NCC)nc(SCC(C)=O)n1	-3%
CCOC(=O)C1CCCN(C(=O)CSc2ccc(Br)cc2)C1 (stereo not drawn)	?
CCOc1ccc(CCNC(=O)CCn2nc(C)c3c(C)n(-c4ccccc4)nc3c2=O)cc1	-2%
COC(=O)c1cc(CNC(=O)C2CC(=O)N(c3ccc4c(c3)OCCO4)C2)ccc1OC (stereo not drawn)	-11%
Cc1oncc1C(=O)N1CCCC(CO)(Cc2ccc(F)cc2F)C1 (stereo not drawn)	-1%
N#CC1=C(N)Oc2n[nH]c(-c3cccnc3)c2C1c1cc(F)ccc1F (stereo not drawn)	-18%
COc1ccc(Cl)cc1S(=O)(=O)N1CCN(c2ccc(F)cc2)CC1	-6%
C/C(=N\NS(=O)(=O)c1c(C)cc(C)cc1C)c1ccncc1	-2%
O=C(CSc1ccccc1)N[C@@H](Cc1ccccc1)C(=O)O	-12%
Cc1ccc2oc(-c3ccc(Cl)cc3)c(O)c(=O)c2c1	-11%
CCN(C(=O)CSc1nc(N)cc(N)n1)C1CCS(=O)(=O)C1 (stereo not drawn)	-8%
COc1ccc(NC(=O)CSc2nnc3ccc(-c4ccccn4)nn23)cc1	-2%
Cc1ccccc1NC(=O)c1c(NC(=O)c2cccs2)sc2c1CCC(C)C2 (stereo not drawn)	-10%
O=C1CC(=O)N(Cc2ccco2)C(=O)N1	?
CCOC(=O)C1C(c2ccc(O)c(OC)c2)NC(=S)NC1(O)C(F)(F)F (stereo not drawn)	-5%
CC(C)c1ccc(-c2nnn(CCC#N)n2)cc1	-6%
O=C(NCc1cccs1)C1CC(=O)N(c2ccc(F)cc2)C1 (stereo not drawn)	-11%
O=C(Nc1ccc(O)cc1)c1ccc(NC(=O)C2CCCO2)cc1 (stereo not drawn)	-7%
CC(C)NC(=S)N/N=C/c1ccccc1[N+](=O)[O-]	18%
CCCc1nc2sc3c(c2c(=O)[nH]1)CCCC3	79µM*
CCNc1ncc2nc(-c3ccc(F)cc3)c(=O)n(C)c2n1	6%
CCN(CC)c1ccc(CNc2nc3ccccc3n2C(C)C)cc1	-22%
COc1ccc(N2CCN(C(=O)c3ccc(OCC4CCCO4)cc3)CC2)cc1 (stereo not drawn)	1%
Cc1ccc(NC(=O)CCC(=O)NNC(=O)c2cccs2)cc1C	65%[activator]
CCC1CCCCN1S(=O)(=O)c1ccc2c(c1)CCCN2C(C)=O (stereo not drawn)	-1%
CN(C)c1ncc2nc(-c3cccs3)c(=O)n(CCc3ccccc3)c2n1	-4%
Cc1cc(C(=O)NC(C)c2ccccc2)c2cc(F)ccc2n1 (stereo not drawn)	-9%
Cc1ccccc1NC(=O)C(=O)c1cn(C)c2ccccc12	3%
COc1ccc(Nc2cc(C(=O)NCCCN(C)C3CCCCC3)c3ccccc3n2)cc1	5%
CCOC(=O)c1c(NC(=O)c2cc(-c3ccc(OC)cc3)on2)sc(C)c1C	?
CCC(C)[C@H](NC(=O)[C@@H]1Cc2ccccc2CN1)C(=O)NCc1ccc(OC)cc1 (stereo partly drawn)	-18%
COc1ccc(-c2nn(CC(=O)NCc3ccccc3)c3c2cnc2ccc(F)cc23)cc1	10%
O=C1C=C(C2CCCCC2)C(=O)c2ccccc21	-15%
CCN(CC)CCn1c2c(c(SCC(=O)Nc3cccc4ccccc34)nc1=O)CCCC2	-2%
O=C(Cn1nnc(-c2ccc(NC(=O)c3ccccc3F)cc2)n1)NCc1ccc(F)cc1	14%
O=S(=O)(Cc1ccc(Cl)cc1)c1ccccc1-c1nnc(-c2ccc(Cl)cc2)o1	4%
COc1ccc(N2C(=O)CC(N3CCN(S(=O)(=O)c4cc(C)ccc4C)CC3)C2=O)cc1 (stereo not drawn)	-9%
Clc1cc(Cl)cc(Nc2ncnc(-n3cccc3)n2)c1	-1%
Cc1cc(C)c(NC(=O)NC(=O)C(Cl)(Cl)Cl)c(C)c1	1%
CCOc1ccc(N(Cc2cc3cc(OC)ccc3[nH]c2=O)C(=O)C2CCCO2)cc1 (stereo not drawn)	1%
COc1ccc(S(=O)(=O)N2CCCCC2)cc1C(C)C	-3%
O=C(NCC(c1cccnc1)N1CCN(Cc2ccccc2)CC1)C(=O)Nc1cccc(F)c1 (stereo not drawn)	9%
O=C(CCN1CCCCC1)c1ccc2c(c1)OCO2	45µM*
CC(C)CNC(=S)N(CCO)Cc1cc2cc3c(cc2[nH]c1=O)OCO3	-4%
C(=C\c1nccc2c1[nH]c1ccccc12)/c1ccccc1	-8%
Cc1ccc2oc(/N=C(\N)NC(=O)C3CC3)nc2c1	2%
Cc1ccc(S(=O)(=O)N2CCN(C(=O)c3ccccc3OCc3c(C)noc3C)CC2)cc1C	-6%
CCOc1ccc(C2/C(=C(\O)c3cccc(OC)c3)C(=O)C(=O)N2c2ccccn2)cc1OC (stereo not drawn)	-12%
COc1ccc(OC)c(NC(=O)c2cc3c(=O)n4cccc(C)c4nc3n2C)c1	12%
CC(OC(=O)c1ccncc1)C(=O)Nc1ccc([N+](=O)[O-])cc1Cl (stereo not drawn)	-10%

(further entries)
SMILES	VDR inhibitor
NC(=O)c1ccc[n+](CC(=O)c2ccc(Cl)c(Cl)c2)c1	1%
CCCN(CCC)CCN1C(=O)C2C(C(=O)Nc3cccc(SC)c3)C3C=CC2(O3)C1C(=O)NC1CCCCC1 (stereo not drawn)	10%
O=C(NCCN1CCOCC1)NC1(C(F)(F)F)Oc2ccccc2O1	6%
COc1cc(NS(C)(=O)=O)c(OC)cc1NC(=O)c1ccccc1	-7%
COc1cccc(/C=N/NC(=O)c2nnn(-c3nonc3N)c2-c2cccs2)c1	1%
COc1ccc(N(CC(=O)NCCSC(C)(C)C)S(C)(=O)=O)c(OC)c1	-6%
Cc1c(Cl)cccc1NC(=O)COC(=O)CN1C(=O)NC(C)(C)C1=O	-1%
O=C(CNS(=O)(=O)c1ccc(Br)cc1)N1CCN(Cc2ccccc2)CC1	6%
COc1ccc(CC(=O)OCC(=O)NCc2ccco2)cc1	28%
COc1cc2c(cc1OC)CN(C(=S)Nc1c(C)cccc1C)CC2	-29%
COC(=O)CC1C(=O)NCCN1C(=O)c1ccccc1 (stereo not drawn)	3%
COc1ccccc1NC(C)C(=O)N/N=C/c1cccs1 (stereo not drawn)	7%
COc1ccc(NC(=O)N(C)C[C@H]2Oc3ccc(NS(=O)(=O)c4ccc(OC)cc4)cc3C(=O)N([C@H](C)CO)C[C@@H]2C)cc1	12%
CCCCn1c(SCC(=O)NCC2CCCO2)nc2ccc(N3CCOCC3)cc2c1=O (stereo not drawn)	-7%
CCCCC(CC)C1OCC(CN2CCCCC2)O1 (stereo not drawn)	-3%
CC(C)c1ccc(S(=O)(=O)c2nnn3c2nc(N2CCCCC2)c2ccccc23)cc1	-24%
COc1ccc(N2CCN(Cc3nc4ccccc4c(=O)[nH]3)CC2)cc1	?
Cn1c(=O)c2[nH]c(CCCCCc3nc4ccccc4[nH]3)nc2n(C)c1=O	-17%
Cc1c(NC(=O)COC(=O)C23CC4CC(CC(O)(C4)C2)C3)c(=O)n(-c2ccccc2)n1C	-13%
Cc1c(Cl)cccc1NC(=O)COc1ccc(S(=O)(=O)N2CCOCC2)cc1	-4%
COc1ccc(CNc2ccnc(-c3cccc(NS(C)(=O)=O)c3)n2)c(OC)c1	-9%
Cc1cc(C)cc(NC(=O)Nc2nnc(N(C)C3CCCCC3)s2)c1	2%
Cc1cc(C)cc(NC(=O)N2CCN(C)c3ncccc32)c1	3%
Cc1ccc2sc(NC(=O)c3cccc(N4C(=O)CCC4=O)c3)nc2c1C	-4%

Next part; the last two above are carried over.
SMILES	VDR inhibitor
Cc1cc(C)cc(NC(=O)N2CCN(C)c3ncccc32)c1	3%
Cc1ccc2sc(NC(=O)c3cccc(N4C(=O)CCC4=O)c3)nc2c1C	-4%
CCOC(=O)c1c(NC(=O)c2ccc(S(=O)(=O)N3CCC(C)CC3)cc2)sc2c1CCN(C)C2	5%
Cc1cccc(Nc2nnc(SC(C)C(=O)NC3CC3)s2)c1 (stereo not drawn)	-4%
Cc1cc(C)cc(NC(=S)N2CCN(S(=O)(=O)c3ccccc3)CC2)c1	8%
Cc1ccc(C)c(NC(=O)NNC(=O)c2ccc3ccccc3c2O)c1	1%
O=C(CO/N=C/c1ccccc1OC(F)F)NCc1cccs1	6%
Cc1nn(C(=O)CNS(=O)(=O)c2ccccc2)c(C)c1Sc1ccc(Cl)cc1	-6%
Cc1cccc(N(C)C(=O)Cn2cnc3nc4c(cc3c2=O)CCCC4)c1	2%
CC(C)CN(C(=O)COC(=O)C1c2ccccc2Oc2ccccc21)C1CCS(=O)(=O)C1 (stereo not drawn)	2%
CC(Oc1ccccc1)C(=O)N1CCC2(CC1)Oc1ccc(F)cc1C(=O)C21CC(c2cccnc2)=NO1 (stereo not drawn)	-11%
CC1(NC(=O)Nc2cccc(Br)c2)CCS(=O)(=O)C1 (stereo not drawn)	-14%
Cc1ccc(S(=O)(=O)NCC(=O)N2CCCC2)cc1	-4%
COc1ccc(/C=N/NC(=O)c2cccc(O)c2)cc1Cn1nc(C)c([N+](=O)[O-])c1C	-20%
CCOC(=O)N1CCC(NC(=O)c2cc(S(=O)(=O)N3CCC4(CC3)OCCO4)ccc2F)CC1	14%
O=C(CCNC(=O)c1ccccc1)NNC(=O)c1ccc(F)cc1	-21%
CSCCC(NC(=O)COc1ccccc1)C(=O)OCc1ccc(Cl)cc1 (stereo not drawn)	6%
CCOC(=O)c1sc(NC(=O)c2ccco2)nc1-c1ccccc1	-23%
C/C=N/NC(=O)c1cc(Br)ccc1O	1%
COc1cccc(CNC(=O)C2CCCN(S(=O)(=O)c3cnc[nH]3)C2)c1 (stereo not drawn)	-13%
CCOc1ccc(C(=O)Nc2cccc(C(=O)O)c2)cc1Cl	11%
O=C1[C@@H]2[C@H]3CC[C@H](C3)[C@@H]2C(=O)N1O	9%
CCn1c(SCc2ccccc2F)nc(=O)c2c(C(=O)OC)cc(C3CC3)nc21	12%
CCOC(=O)c1oc2cc(O)c(CC)cc2c(=O)c1-c1ccc2c(c1)OCCO2	-12%
O=C(CN1C(=O)COc2ccc(S(=O)(=O)N3CCOCC3)cc21)N1CCN(c2ccccc2F)CC1	-5%
COc1ccc(-n2ncc(C(=O)NCc3ccc4c(c3)OCO4)c2C2CCN(C(=O)OC(C)(C)C)CC2)cc1	15%
O=C(Cc1c[nH]c2ccccc12)NC1(C(=O)NC2CCCC2)CCCCC1	-13%
O=C(NCCN1CCCCC1)c1ccc(Cn2c(SCc3ccccc3)nc3cccnc32)cc1	6%
COC(=O)N(NC(=O)C(O)(c1ccccc1)c1ccccc1)c1ccc(C)cc1	-15%
O=C(NCCN1CCOCC1)c1cccc(S(=O)(=O)NCc2ccccc2)c1	5%
CN(/C=C/C(=O)C(F)(F)F)Cc1ccccc1	2%
Cc1ccc(C)c(NC(=O)Cn2c(=O)oc3cc(S(=O)(=O)NCc4ccccc4)ccc32)c1	-3%
O=c1ccc(-c2ccc(S(=O)(=O)N3CCN(c4cccc(Cl)c4)CC3)o2)n[nH]1	4%
O=C(Nc1ccon1)c1sc2cc(F)ccc2c1Cl	-3%
NC(=S)N/N=C/c1coc2c(ccc3ccccc32)c1=O	2%

Grouped by structure: the entries above containing a thiophene ring, fused or not.
SMILES	VDR inhibitor
COC(=O)c1c(NC(=O)COC(=O)CCc2ccc(S(=O)(=O)N3CCOCC3)cc2)sc2c1CCC2	-3%
O=C(Nc1ccc(N2CCN(C(=O)c3ccccc3)CC2)cc1)c1cccs1	1%
Cc1cc(S(=O)(=O)Nc2ccc3ccccc3c2)c(C)s1	9%
Cc1ccccc1NC(=O)c1c(NC(=O)c2cccs2)sc2c1CCC(C)C2 (stereo not drawn)	-10%
O=C(NCc1cccs1)C1CC(=O)N(c2ccc(F)cc2)C1 (stereo not drawn)	-11%
CCCc1nc2sc3c(c2c(=O)[nH]1)CCCC3	79µM*
Cc1ccc(NC(=O)CCC(=O)NNC(=O)c2cccs2)cc1C	65%[activator]
CN(C)c1ncc2nc(-c3cccs3)c(=O)n(CCc3ccccc3)c2n1	-4%
CCOC(=O)c1c(NC(=O)c2cc(-c3ccc(OC)cc3)on2)sc(C)c1C	?
COc1cccc(/C=N/NC(=O)c2nnn(-c3nonc3N)c2-c2cccs2)c1	1%
COc1ccccc1NC(C)C(=O)N/N=C/c1cccs1 (stereo not drawn)	7%
CCOC(=O)c1c(NC(=O)c2ccc(S(=O)(=O)N3CCC(C)CC3)cc2)sc2c1CCN(C)C2	5%
O=C(CO/N=C/c1ccccc1OC(F)F)NCc1cccs1	6%
O=C(Nc1ccon1)c1sc2cc(F)ccc2c1Cl	-3%

Only part of the results is shown, so the mix of outcomes need not match the whole.
